# Compound activity as filed in PubChem BioAssay.
# HIV TAR-Tat: HIV-1 TAR-Tat binding disruption. HIV-1 TAR RNA, Tat peptide displacement FRET; hits give high values. z-score (no concentration beside the values). 0.6% of 100,000 active. AID 1259389;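 further: score is relative to mean and SD of negative controls; some compounds called inactive have numbers as strong as hits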
# CDC25B-CDK2 inh: human CDC25B-CDK2/CyclinA binding inhibition; 0.72% of 94,000 active; P30305+P24941; HTRF CDC25B-CDK2/CyclinA binding, anti-His/anti-Flag; hits give high values; z-score (concentration not given with the values);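 further: score is relative to mean and SD of negative controls; strong numbers were not always called active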
# An asterisk follows results filed as active; nt = not tested or not shown; & = joins results of further samples.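 How the source made its calls: active means z-score from 3 up in half or more of its runs; inactive means the rest.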
SMILES,HIV TAR-Tat,CDC25B-CDK2 inh
COc1ccc(-c2c3c(=O)n(C)c(=O)n(C)c3c3n2-c2ccccc2NC3c2ccc(O)cc2)cc1 (stereo not drawn),1.6,-0.36
CCOc1ccc(C(=O)OCc2cc(=O)n3cc(C)sc3n2)cc1,0.51,nt
Cc1cccc(C(=O)N2CCc3cc4cccc(C)c4nc32)c1,-0.48,0.14
Cc1nn(-c2ccc(N3CCCC3)nn2)c(C)c1CCC(=O)Nc1ccc(F)cc1F,0.74,nt
CN1CCN(CCCNC(=O)C2CCN(c3nc4cccnc4s3)CC2)CC1,-0.43,nt
COCCCNc1nc2ccc(C)cc2n2nnnc12,-0.7,nt
O=C(NCc1cccs1)Nc1cccs1,-4.3,-0.5
C[N+](C)(C)[C@@H](Cc1c[nH]c(=S)[nH]1)C(=O)[O-],2.6,nt
CC(C)CCNC(=O)c1cc(-c2cccnc2)nc2ccc(Br)cc12,-0.2,nt
O=C(Nc1ncc([N+](=O)[O-])s1)c1cccnc1,-0.6,-2.1
CCc1ccc(CNc2nc3ccccc3n2CCN(CC)CC)cc1,1.1,-1.4
Cn1cc(NC(=O)N2CCN(C(=O)c3ccco3)CC2)c2ccccc2c1=O,1.2,nt
COc1ccc(OC)c(C(=O)CC2(O)C(=O)Nc3ccc(Cl)cc32)c1 (stereo not drawn),-5.4,-0.14
CCC1Sc2ccc(S(=O)(=O)CCC(=O)Nc3c(C)cc(C)cc3C)cc2NC1=O (stereo not drawn),0.02,nt
CC(CS(=O)(=O)c1ccc2c(c1)NC(=O)C(C)S2)C(=O)N1CCC(N2CCCCC2)CC1 (stereo not drawn),-1.7,nt
Cc1c(Cl)cccc1Nc1nc(-c2ccccn2)cs1,1.1,2.3
COCCCNC(=O)c1c(O)nc2cc(C)ccn2c1=O,0.45,-0.82
O=C(CCc1ccccc1)Nc1nc2n(n1)C(c1ccc(F)cc1)C=C(c1ccccc1)N2 (stereo not drawn),3.1,0.07
CCn1c(CN2CCCC2)nc2cc(NC(C)=O)ccc21,-1.1,-3.3
CCCCC1=NN(C(=O)c2ccc(N(C)C)cc2)C(O)(C(F)(F)F)C1 (stereo not drawn),nt,-3.6
Cc1cc(C)cc(N2CC(c3nc4ccccc4n3C(C)C)CC2=O)c1 (stereo not drawn),0.04,-1.1
CN1CCC[C@H]1c1cccnc1,2&1.4,nt
O=C(/C=C/c1cccc2ccccc12)Nc1ccc(F)cc1,nt,0.13
Cc1cc(C)cc(Nc2nccc(=O)[nH]2)c1,0.88,-2
CCOC(=S)Nc1ccc(OC(F)(F)F)cc1,nt,-0.69

# By substructure: those above containing an aryl methoxy group (2)
SMILES,HIV TAR-Tat,CDC25B-CDK2 inh
COc1ccc(-c2c3c(=O)n(C)c(=O)n(C)c3c3n2-c2ccccc2NC3c2ccc(O)cc2)cc1 (stereo not drawn),1.6,-0.36
COc1ccc(OC)c(C(=O)CC2(O)C(=O)Nc3ccc(Cl)cc32)c1 (stereo not drawn),-5.4,-0.14

# Next section:
SMILES,HIV TAR-Tat,CDC25B-CDK2 inh
CCOc1ccc(OCC)c(S(=O)(=O)n2ccnc2)c1,2.9,-1.7
CN1C(C(=O)N2CCC(C(N)=O)CC2)=CC(c2cccs2)=NS1(=O)=O,1.4,-1.6
[O-][n+]1onc2c3nsnc3c(Br)cc21,nt,-0.99
CS(=O)(=O)CCC(C(=O)N1CC=C(c2ccccc2)CC1)N1Cc2ccccc2C1=O (stereo not drawn),0.63,nt
CCOc1cccc2cc3c(=O)n(-c4ccccc4)nc-3oc12,1,-1
Cc1cc(-c2ccc(C)c(S(=O)(=O)N3CCc4ccccc4C3)c2)on1,-0.24,nt
COC(=O)C1=C(C)NC2=C(C(=O)CC(C)(C)C2)C1c1ccccc1F (stereo not drawn),0.62,-0.61
COc1ccc2cc(Br)ccc2c1CC#N,nt,-4.5
Cc1cc(C(=O)Nc2nc(-c3ccc(C)c(Cl)c3)c(C)s2)no1,nt,-1.6
CCn1c(=O)c(=O)[nH]c2c3nsnc3ccc21,1.7,-0.21
O=C(Cn1cnc2sc3c(c2c1=O)CCCC3)NCC(=O)N1CCN(c2ccc(F)cc2)CC1,1.2,-2.7
O=C(NCCN1CCCc2ccccc21)Nc1ccc2c(c1)OCCO2,0.17,1.2
Cc1csc(NC(=O)C(=O)c2c[nH]c3ccccc23)n1,2.2,-0.9
O=C(Nc1cc(-c2ccc(F)c(F)c2)no1)c1cccs1,0.97,-0.46
O=C(CSc1n[nH]c(-c2ccccc2)n1)N1CCc2ccccc21,0.16,nt
Cc1cccn2c(=O)c(C(=O)NCc3c(F)cccc3F)c(O)nc12,0.74,-1.9
Cc1oc(-c2cccs2)nc1CSc1nncn2c1cc1sccc12,2.2,nt
O=c1cc(CSc2n[nH]c(-c3ccccc3F)n2)nc2sc(C3CCCCC3)nn12,0.94,nt
CCc1nn(CC(=O)NCC2CCCN2CC)c(=O)c2cc3sccc3n12 (stereo not drawn),0.1,0.36
COc1ccc(NC(=O)c2sc3nc4c(cc3c2N)C(=O)CCC4)cc1,-0.26,-2.1
O=C(Nc1ccccc1)N1CCN(c2ncccc2C(F)(F)F)CC1,nt,0.45
Cn1c(=O)c2c(-c3ccc(Br)cc3)n(-c3ccc4c(c3)OCCO4)cc2n(C)c1=O,1.9,-1
O=C(Cc1noc2ccccc12)N1CCN(c2ncccn2)CC1,1.3,-0.59
Cc1nc(-c2csc(S(=O)(=O)Nc3cccc(C)c3C)c2)no1,0.45,nt
O=C(O)/C=C/C(=O)Nc1ccccc1,nt,-2.2

# Next part:
SMILES,HIV TAR-Tat,CDC25B-CDK2 inh
O=C(O)c1cc(Nc2nc3ccccc3n3cnnc23)ccc1N1CCOCC1,-0.61,-0.84
C=CCN(Cc1nc(-c2ccc(C)cc2)no1)S(=O)(=O)c1ccc(F)cc1,1.6,2.9
CCOC(=O)c1c(N)sc2c1CCN(C(C)=O)C2,nt,-2.1
Cc1cc(C)c(S(=O)(=O)NCCc2csc3nc(-c4cccs4)nn23)cc1C,0.78,nt
Cc1cc(SC(C)C(=O)Nc2ccccc2Cl)nc(C)n1 (stereo not drawn),0.35,-0.92
CC(C)Cn1cnc2nc(CSc3ccccc3NC(=O)CCC3CCCC3)cc(=O)n21,-0.53,-2.4
CC1Cc2cc(S(=O)(=O)CCC(=O)Nc3ccc(F)cc3)ccc2N1C(=O)C1CC1 (stereo not drawn),-0.03,nt
COc1ccc(S(=O)(=O)Nc2ccc(C)cn2)cc1,nt,0.3
Cc1ccc(/C(O)=C2\C(=O)C(=O)N(CCN3CCOCC3)C2c2cccnc2)cc1 (stereo not drawn),-0.82,-1.4
CCOC(=O)c1nnn(-c2nonc2N)c1-c1ccc(OC)cc1,0.35,-0.35
CC1CCN(S(=O)(=O)c2cccc(-c3cn4cc(Cl)ccc4n3)c2)CC1,0.62,-0.94
CC1Cc2ccccc2N1C(=O)C1(c2cccs2)CCOCC1 (stereo not drawn),2,nt
Cc1ccc(-n2c(=O)c(C#N)cc3c(=O)n4ccccc4nc32)cc1Cl,-5.7,-13
CN1c2ccccc2-c2nc(SCC(=O)Nc3ccc(F)c(Cl)c3)ncc2S1(=O)=O,0.3,nt
CCCCc1ccc(-n2c(-c3ccc(F)cc3)coc2=O)cc1,nt,-0.68
CS(=O)(=O)N1CCCc2ccc(NS(=O)(=O)c3cccc(Cl)c3)cc21,1.2,nt
CN(C)/C=C(\C#N)C(=O)Nc1ccc(F)c(Cl)c1,nt,-0.71
COc1ccc(-c2nc(SCC(=O)N3CCCC3)n3[nH]c(=O)cc3n2)cc1,1.6,nt
CCC(C)NC(=O)c1nn2c(c1Cl)NC(c1ccc(C)cc1)CC2C(F)(F)F (stereo not drawn),0.82,-0.25
CN(C)c1ccc(C2Nc3ccccc3NC3=C2C(=O)CC(C)(C)C3)cc1 (stereo not drawn),-14,-1.1
COc1ccc(OC)c(S(=O)(=O)N2CCC(c3ccncc3)CC2)c1,1.2,nt
CCCC(=O)n1nc(C)c(S(=O)(=O)N2CCc3ccccc3C2)c1C,1.6,nt
O=S1(=O)N=C(c2ccc(Br)cc2)Nc2ccc(S(=O)(=O)N3CCOCC3)cc21,-0.09,nt
O=C(C1c2ccccc2C(=O)N2CCc3ccccc3C12)N1CCCC1 (stereo not drawn),nt,0.34
CCOC(=O)N1CCN(S(=O)(=O)c2ccc(F)cc2)CC1,1.7,-2.7

# (continued)
SMILES,HIV TAR-Tat,CDC25B-CDK2 inh
CCOC(=O)c1c(C)sc(-c2c(-c3ccccc3)[nH]c3[nH]c(=O)[nH]c(=O)c23)c1O,-5.6,-2.5
O=C(CCCc1nc(-c2cccs2)no1)Nc1ccccc1Cl,1.1,1.1
COc1ccc(NS(=O)(=O)c2c(C)nc3sccn3c2=O)cc1,0.44,-1.3
Clc1ccc(CSc2ncn[nH]2)cc1,0.14,-2.6
Cc1cc(C)c(-c2c(N3CCc4ccccc43)c(=O)c2=O)cc1C,-0.83,nt
O=C(NC1CCCC1)C1CCN(c2ccc(F)cc2)C1=O (stereo not drawn),2.3,nt
Cc1ccc(-n2nc3c(c2NC(=O)c2ccco2)CS(=O)(=O)C3)c(C)c1,nt,-2
COCCCN=C(NC#N)SC,nt,-0.96
CCNc1nc(NCc2ccccc2Cl)c2cnn(C)c2n1,1.3,nt
O=S1(=O)N=C(c2ccc(Br)cc2)Nc2ccccc21,nt,-2.4
CN(C)S(=O)(=O)N(CC(=O)NCC1CCCO1)c1ccccc1 (stereo not drawn),-0.11,-2.9
O=C(NCc1cccnc1)c1nnc(-c2ccc3c(c2)OCO3)o1,1.6,-2
COC(=O)C1=C(C)NC2=C(C(=O)c3ccccc32)C1c1ccc(OCc2ccccc2F)c(OC)c1 (stereo not drawn),0.39,0.01
Cc1ccc(CN2CCC(CNC(=O)Nc3ccc(Br)cc3)C2)cc1 (stereo not drawn),-0.21,-1.8
Cc1ccc(CNC(=O)c2cnc3sc(N4CCOCC4)nn3c2=O)o1,-0.01,nt
O=C(c1ccccc1Br)N1CCN(c2ccc(-c3cccs3)nn2)CC1,0.25,nt
CCOc1ccc(S(=O)(=O)N2CCCCC2)cc1-c1nc2c(C(C)(C)C)nn(C)c2c(=O)[nH]1,1.2,-0.12
Cc1ccc(C)c(N2CCN(CCCNc3ncnc4onc(C)c34)CC2)c1,2.1,nt
COc1ccc(Nc2nc(NCc3ccco3)c3ccccc3n2)cc1,0.83,1.1
NCc1cccc(-n2cccn2)c1,nt,0.5
COC(=O)c1c(SC)nc2ccsc2c1OCc1ccc(Cl)cc1,0.95,-2.1
Cc1onc(-c2cccc([N+](=O)[O-])c2)c1C(=O)O/N=C(\C#N)c1ccccc1,nt,-1.2
Cc1cc2c(cc1S(=O)(=O)Nc1ccc(F)cc1Cl)OCC(=O)N2,-0.07,nt
Cn1c(Cn2c(=O)sc3ccccc32)nnc1SCc1c(F)cccc1Cl,nt,-1.2
COc1ccc(C2C3C(=O)N(c4ccc(F)cc4)C(=O)C3ON2c2ccccc2)cc1 (stereo not drawn),2.1,-1.1

# Some of these compounds in order of number of heavy atoms, highest first:
SMILES,HIV TAR-Tat,CDC25B-CDK2 inh
COc1ccc(C2C3C(=O)N(c4ccc(F)cc4)C(=O)C3ON2c2ccccc2)cc1 (stereo not drawn),2.1,-1.1
CCOC(=O)c1c(C)sc(-c2c(-c3ccccc3)[nH]c3[nH]c(=O)[nH]c(=O)c23)c1O,-5.6,-2.5
Cc1cc2c(cc1S(=O)(=O)Nc1ccc(F)cc1Cl)OCC(=O)N2,-0.07,nt
CCNc1nc(NCc2ccccc2Cl)c2cnn(C)c2n1,1.3,nt
NCc1cccc(-n2cccn2)c1,nt,0.5

# (next part)
SMILES,HIV TAR-Tat,CDC25B-CDK2 inh
CC(Oc1ccc(C(C)(C)C)cc1)C(=O)N(Cc1ccco1)C1CCS(=O)(=O)C1 (stereo not drawn),0.24,-2
COc1ccccc1CNC(=O)c1cccc(-n2c(=S)[nH]c3cc(Cl)ccc3c2=O)c1,nt,-1.4
O=C(Nc1ccc(F)cc1)C1CCCN1S(=O)(=O)c1ccc(-c2ccc(=O)[nH]n2)s1 (stereo not drawn),-0.24,nt
CCC(C(=O)Nc1ccc2c(c1)OCO2)n1c(C)nc2onc(C)c2c1=O (stereo not drawn),1.2,nt
CCOC(=O)c1c(N)oc2c(-c3ccc(CC)cc3)c3c(C(=O)OCC)c(N)oc3cc12,0.21,0.39
O=C(COc1ccc2oc3c(c2c1)CCCC3)Nc1cccc(Br)c1,1.6,-1.8
COc1cc(C)c(Cl)cc1S(=O)(=O)n1ccnc1,0.32,-1.5
CCCCNCC(O)COc1ccccc1 (stereo not drawn),1.4,-2.2
CCCCC1CNc2cc(C)ccc2O1 (stereo not drawn),1.5,-1.3
Cc1nc2c3ccccc3n(CCc3ccccc3)c2s1,nt,-0.04
COc1ccc(Oc2coc3cc(OC(C)C(=O)OC4CCCCC4)ccc3c2=O)cc1 (stereo not drawn),1.5,-0.72
CCOC(=O)C1=C(C)OC(N)=C(C#N)C1c1ccc(Cl)cc1 (stereo not drawn),nt,-1.1
Cc1ccc(-c2onc(C)c2C)cc1S(=O)(=O)NCCc1sccc1C,-6.1,nt
CC(C)c1cc(-c2nc(-c3ccc(Cl)cc3)no2)n[nH]1,-0.72,nt
COC(=O)c1sccc1NC(=O)c1c(C)oc2ncnc(N3CCCCC3)c12,2.7,nt
CC(C)CCN(C(=O)Nc1ccccc1)C(C)c1ccco1 (stereo not drawn),1.6,nt
COc1cc(C2C(C#N)=C(N)Oc3n[nH]c(C)c32)cc(Br)c1OCc1ccc(F)cc1 (stereo not drawn),-0.01,-0.75
Cn1c(SCC(N)=O)nc2c(c1=O)SCC2,-0.87,-3.3

# One compound at a time, as listed above. Screens in order: HIV TAR-Tat, CDC25B-CDK2 inh
# `CC(C)c1cc(-c2nc(-c3ccc(Cl)cc3)no2)n[nH]1` is entered as -0.72, nt
# `COc1cc(C2C(C#N)=C(N)Oc3n[nH]c(C)c32)cc(Br)c1OCc1ccc(F)cc1` (stereo not drawn) is entered as -0.01, -0.75
# `CCC(C(=O)Nc1ccc2c(c1)OCO2)n1c(C)nc2onc(C)c2c1=O` (stereo not drawn) is entered as 1.2, nt
# `COC(=O)c1sccc1NC(=O)c1c(C)oc2ncnc(N3CCCCC3)c12` is entered as 2.7, nt
